Screening data from PubChem.
Mtb MbtI inh: blocks the Mycobacterium tuberculosis siderophore enzyme MbtI. purified MbtI enzyme, fluorescence intensity read-out. 0.89% of 100,000 active. inhibition, %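 (about 17 µg/mL by stock and volumes)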;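 active = above 50% in both replicates, above 80% if mildly self-fluorescent; inactive = the rest, strongly fluorescent compounds included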;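 also: 0% = mean of negative and 100% = mean of positive controls; one replicate is shown; some compounds called inactive have numbers as strong as hits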
Target sequence (P9WFX0 whole entry, looked up): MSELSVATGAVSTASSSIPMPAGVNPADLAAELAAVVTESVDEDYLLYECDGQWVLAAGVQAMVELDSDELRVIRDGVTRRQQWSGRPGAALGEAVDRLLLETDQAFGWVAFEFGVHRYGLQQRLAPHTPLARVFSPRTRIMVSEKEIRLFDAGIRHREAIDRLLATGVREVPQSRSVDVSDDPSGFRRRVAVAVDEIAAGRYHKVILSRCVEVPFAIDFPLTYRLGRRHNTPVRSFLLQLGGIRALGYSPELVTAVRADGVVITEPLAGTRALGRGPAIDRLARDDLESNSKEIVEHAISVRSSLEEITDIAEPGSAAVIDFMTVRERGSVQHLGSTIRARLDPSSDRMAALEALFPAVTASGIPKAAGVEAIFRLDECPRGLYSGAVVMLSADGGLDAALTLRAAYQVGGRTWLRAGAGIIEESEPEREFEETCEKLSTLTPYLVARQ
PV pol inh: poliovirus RNA polymerase inhibition; P03300; poliovirus polymerase elongation, fluorescence polarization; stronger effect = lower value; % elongation, % (compound at 16.7 µg/mL); 0.66% of 150,000 active; AID 588519; in the data active = % elongation below about 90%; also: some results filed as inactive read as strong as hits
Mtb MenB inh: inhibitors of Mycobacterium tuberculosis MenB enzyme. AID 540299. 0.43% of 100,000 active. P9WNP5. inhibition, %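 (about 12 µg/mL by stock and volumes)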. MenB enzyme assay, absorbance read-out; some hits fall short of the stated cut;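 active = mean of two replicates above 30%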;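 also: 0% = no compound and 100% = wells with inactive enzyme; the first replicate is given; strong numbers were not always called active; inactives centre near -10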
Target sequence (P9WNP5 whole entry, looked up): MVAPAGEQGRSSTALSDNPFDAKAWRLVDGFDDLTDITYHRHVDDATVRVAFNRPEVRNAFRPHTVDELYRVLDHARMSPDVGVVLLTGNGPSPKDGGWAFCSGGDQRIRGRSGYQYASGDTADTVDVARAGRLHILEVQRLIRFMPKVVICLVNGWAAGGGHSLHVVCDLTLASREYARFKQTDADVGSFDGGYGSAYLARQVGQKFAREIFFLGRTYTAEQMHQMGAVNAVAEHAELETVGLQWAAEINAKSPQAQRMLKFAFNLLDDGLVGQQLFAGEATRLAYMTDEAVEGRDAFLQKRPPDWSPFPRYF
PV pol inh intensity: further read-out of PV pol inh, marked with its call; % elongation; measured here: total intensity read-out; formula for this scale not given here;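 total fluorescence in place of polarization; lower means less elongation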
An asterisk follows results filed as active; i = inactive; / = no result given; & = joins results of further samples. Outcome played no part in choosing rows. Share with any hit: about 1.9%.

SMILES	Mtb MbtI inh	PV pol inh	PV pol inh intensity	Mtb MenB inh
CC1CN(C/C(=N/O)C23CC4CC(CC(C4)C2)C3)CC(C)O1 (stereo not given)	-4	102	105	/
Cc1ccc(C2=N/C(=C\c3ccco3)C(=O)O2)cc1	-4	102	104	-5
O=C(Cc1c[nH]c2ccccc12)OCC(=O)N1CCCC1=O	-6	99	105	4
O=C(CSc1cccc[n+]1[O-])c1ccc(OC(F)F)cc1	9	106	109	-2
CCCOc1ccc(/C=C/C(=O)Nc2ncn[nH]2)cc1OC	/	97	105	-1
CCCN(C(=O)/C=C/c1ccc(N(C)C)cc1)C1CCS(=O)(=O)C1 (stereo not given)	5	105	100	-33
O=C(CSc1nnc2ccccn12)c1ccc(S(=O)(=O)N2CCCCC2)cc1	10	104	107	-38
COC(=O)c1ccc(NCC(=O)N2CCCCCC2)cc1	2	102	105	/
CCOC(=O)c1c(NC(=O)CSc2nnnn2-c2cc(C)ccc2OC)sc(C(=O)N(CC)CC)c1C	-15	101	104	3
CN(N)C(=S)Nc1ccccc1	-21	107	106	-14
CC1(C)CC(=O)C(C=Nc2ncnc3nc[nH]c23)=C(O)C1	/	94	97	-27
CCc1cc(=O)[nH]c(N2CCCCC2)n1	2	101	103	5
CC(OC(=O)C1=NNC(=O)CC1)C(=O)Nc1ccc(Oc2ccccc2)cc1 (stereo not given)	-3	102	109	-8
COc1ccc(-c2[nH]c3ccccc3c2CCC(=O)O)cc1	106	107	104	-29
CCOc1ccccc1C(=S)N1CCOCC1	74*	100	101	-6
Cc1ccc(-c2nc(C#N)c(NCCN(C)C)o2)cc1	i	100	103	-5
Cc1cccc2nc(CSc3nnc(-c4ccccc4)o3)cn12	-2	102	106	-9
Cc1n[nH]c(=S)n1CC(=O)N1c2ccccc2CCc2ccccc21	-3	101	100	9
COc1ccc(-c2cc(C(F)(F)F)nc(SCCC(=O)N3CCC(C(N)=O)CC3)n2)cc1	20	99	102	-18
Cc1cc(Br)ccc1SCC(=O)OCC(=O)NC1CCCC1	-6	99	107	/
CC(=O)OCN1C(=O)N(COC(C)=O)C2C1N(COC(C)=O)C(=O)N2COC(C)=O (stereo not given)	32	101	105	10
O=C(OCC(=O)N1CCCCCC1)c1ccc(Cl)nc1	-10	103	108	/
COc1ccccc1NC(=O)/C=C1\NC(=O)CS1	21	100	103	-53
CCc1ccc(C(=O)Nc2nncs2)cc1	9	100	101	13

Entries above that contain an aryl thioether with sulfur outside any ring (six):
SMILES	Mtb MbtI inh	PV pol inh	PV pol inh intensity	Mtb MenB inh
O=C(CSc1cccc[n+]1[O-])c1ccc(OC(F)F)cc1	9	106	109	-2
O=C(CSc1nnc2ccccn12)c1ccc(S(=O)(=O)N2CCCCC2)cc1	10	104	107	-38
CCOC(=O)c1c(NC(=O)CSc2nnnn2-c2cc(C)ccc2OC)sc(C(=O)N(CC)CC)c1C	-15	101	104	3
Cc1cccc2nc(CSc3nnc(-c4ccccc4)o3)cn12	-2	102	106	-9
COc1ccc(-c2cc(C(F)(F)F)nc(SCCC(=O)N3CCC(C(N)=O)CC3)n2)cc1	20	99	102	-18
Cc1cc(Br)ccc1SCC(=O)OCC(=O)NC1CCCC1	-6	99	107	/

(further entries)
SMILES	Mtb MbtI inh	PV pol inh	PV pol inh intensity	Mtb MenB inh
Cc1cc(C)n2ncc(C(=O)N3CCC(C)CC3)c2n1	36	103	104	-10
N/C(=N\O)c1cccs1	-2	107	111	12
Cc1cccc(-n2ncc3c2ncn2nc(COc4c(C)cccc4C)nc32)c1	2	106	107	-37
CC(C)NC(=O)c1cccn2c(=O)c3c4c(sc3nc12)CCCC4	2	102	108	-19
Cc1nc2ccc(CO)cc2s1	0	102	98	/
COc1ccc(-c2nc3ccccc3s2)cc1	-40	108	106	7
Cc1cc(C(=O)NCC2COc3ccccc3O2)nn1C (stereo not given)	-15	98	99	-11
Cc1cc(C)n(CCCNS(=O)(=O)c2cccs2)n1	-7	104	109	0
NC(=O)c1c(N)sc2c1CCCCC2	32	78*	76*	-36
Cc1ccc(-n2c(O)c(C=NCCC3=CCCCC3)c(=O)[nH]c2=O)cc1	/	100	98	3
CC(C)(C)c1ccc(OCNC(=S)NC(=O)c2cncc(Br)c2)cc1	-6	102	100	-23
Cn1ccc(=O)c2ccccc21	34	98	100	-8
COc1ccc(-c2nnco2)cc1OC	69	102	103	-2
c1ccc(-c2ccnc(-c3cc(-c4ccccc4)ccn3)c2)cc1	/	107	114	-8
COc1ccc2cc(-c3csc(-c4cccnc4)n3)ccc2c1	-2	104	104	/
O=C(NCCOc1ccccc1)c1ccc2c(c1)OCO2	-19	101	100	-26
CCN(CC(=O)Nc1ccc2c(c1)OCCO2)CC(=O)Nc1cc(C)on1	-13	98	106	-116
O=C(O)c1ccc2c(c1)nnn2C1CCCCC1	0	101	101	15
CSc1ccc(/C=N/O)cc1	48	100	99	7
O=C(CCc1nc2cccnc2n1Cc1ccccc1)N1CCCCC1	3	101	100	-2
COc1ccc(S(=O)(=O)NCc2cccn2Cc2ccccc2C)cc1	0	102	103	-15
CC(C)NC(=O)CC1Nc2ccccc2NC1=O (stereo not given)	/	101	102	2
O=C(CCC(=O)N1CCSc2ncccc21)NCc1cccc(Cl)c1	4	100	102	3
CNC(=O)c1oc2c(c1C)-c1nn(Cc3cccc(Cl)c3)cc1CC2	89	102	103	-8
Cc1ccccc1NC1=NCC(C)(C)S1	0	112	124	-5
Cc1ccc(Cl)cc1NC(=O)CO/N=C(\N)c1ccccc1	-1	102	105	-13
O=C(O)C1CC(=O)N(Cc2ccccc2)C1 (stereo not given)	-3	101	108	/
Cc1c(C(=O)NC2CCCCC2)oc2ccccc12	-2	102	103	24
CCOC(=O)N1CCC(N2Cc3cccc(C(=O)N4CCN(C(=O)c5ccco5)CC4)c3C2=O)CC1	-10	104	102	-2
COc1cccc2c1OC1=C(C(=O)CC(C)(C)C1)C2CC(=O)c1ccc(O)cc1 (stereo not given)	/	107	98	-10
OC1CCN(Cc2nnnn2Cc2ccccc2)CC1	-4	100	103	0
CC(=O)OCC(=O)[C@@]1(O)CCC2C3CCC4=CC(=O)CC[C@]4(C)C3C(=O)C[C@@]21C (stereo not given in full)	-4	102	102	14
N#CCC(Cc1ccccc1)c1ccco1 (stereo not given)	-9	99	102	-27
Nc1cc(-c2ccccc2)nc2ccccc12	20	95	87	/
CC(C)N(C(=O)CSc1nnc2sc3ccccc3n12)C(C)C	-12	100	102	4
COc1ccc(C(O)c2nccn2C)cc1 (stereo not given)	-3	102	99	5
CCOC(=O)CNc1n[nH]c(N)n1	/	108	112	17
N#Cc1ccccc1COc1ccccc1C(N)=O	7	98	105	-20
Nc1cc(C(F)(F)F)ccc1OCc1ccccc1	/	104	104	-2
COc1cccc(-n2c(-c3cccc(S(=O)(=O)N(C)C)c3)n[nH]c2=S)c1	21	99	91	-22
CCOC(=O)c1sc2nc(C)nc(SCc3nnc(-c4ccc(Cl)cc4)o3)c2c1C	-18	113	116	-28
Cc1cccc(-c2nnc(N(C(=O)C3CCC3)C(C)C)s2)c1	5	102	101	-67
CCCNC(=O)CN1C(=O)COc2ccccc21	-12	105	107	-55
CCOC(=O)c1cc(-c2cc3ccccc3o2)n[nH]1	-12	105	103	10
Cc1ccc2nc(NC(=O)c3cccs3)sc2c1	16&99	102&103	104&95	-50
CCc1cccc2c3c([nH]c12)C(CC)(CC(=O)O)OCC3 (stereo not given)	-5&-5	102&99	97&100	-10&2
CCC(=O)NC1CC(=O)N(c2ccc(F)cc2)C1 (stereo not given)	1	101	108	-4
CCCCc1nc2ccccc2c(C(=O)O)c1C	-7	101	102	-15
O=C(Nc1ccc2nn(-c3ccccc3)nc2c1)C(F)(F)F	/	102	99	-20
c1ccc(-c2nnc(-c3ccncc3)o2)cc1	121	99	101	6
CC1=C(C)C2C(=O)N=C(c3ccc(-c4ccc(C(=O)O)cc4)o3)N=C2S1 (stereo not given)	/	111	116	-13
CCOC(=O)CSc1nc(C#N)c(SCC(=O)OCC)s1	4	101	103	-3
NNC(=O)COc1ccccc1F	5	99	97	4
NCCNC(=O)c1ccncc1	-6	100	101	-14
CC(=O)Nc1cccc(SC(F)(F)F)c1	-4	99	107	8
O=C(Nc1cccnc1)C12CC3CC(CC(C3)C1)C2	-9	99	101	36
CC1CCCC(NC(=O)COC(=O)c2ccccc2O)C1C (stereo not given)	-16	103	106	/
Cc1c(-c2ccccc2)oc2c(C(=O)O)cccc2c1=O	10	100	98	/
CC1CCCC(C)N1C(=O)COC(=O)c1ccc(O)cc1 (stereo not given)	7	99	103	/
CC1CCCC(C)N1C(=O)c1cc(=O)c2ccccc2o1 (stereo not given)	2	103	98	/

Other entries
SMILES	Mtb MbtI inh	PV pol inh	PV pol inh intensity	Mtb MenB inh
CC(=O)n1c2ccccc2c2c(C#N)c(N3CCCCC3)sc21	-15	104	105	1
Cc1cc(C(=O)CSc2nncs2)c(C)n1CC1COc2ccccc2O1 (stereo not given)	13	102	103	-27
CCOc1ccc(N=CC2C(Oc3ccc(Cl)cc3)C(=O)N2c2ccc(OCC)cc2)cc1 (stereo not given)	-2	102	108	2
CCc1nc2ccccc2c(NC(=O)CN2CCCCC2)c1C	3	104	102	-14
Cc1ncc(NS(=O)(=O)c2ccc(NC(=O)NC3CCCCC3)cc2)c(C)n1	4	98	98	10
N#CCn1c(CN2CCN(c3cccc(C(F)(F)F)c3)CC2)nc2ccccc2c1=O	2	101	101	-18
Nn1c(SCC(=O)N(C2CCCC2)C2CCS(=O)(=O)C2)nnc1C(F)(F)F (stereo not given)	-3	103	103	-1
Nc1cccc(C2OCCCO2)c1	/	102	100	-26
CC(C)CC(NC(=O)c1ccccc1Cl)C(=O)O (stereo not given)	8	99	102	-1
CCC(C)NC(=O)CSc1cc(C)nc2c(-c3ccccc3OC)c(C)nn12 (stereo not given)	-13	105	107	-34
O=C(CN1CC(=O)Nc2ccccc21)Nc1ccc(N2CCCCC2)cc1	-20	109	118	-7
COc1cc(C2c3c(oc4ccc(F)cc4c3=O)C(=O)N2CC2CCCO2)ccc1O (stereo not given)	9	99	99	-1
COC(=O)C1=C(C)NC(=O)C1(NS(=O)(=O)c1ccc(C)cc1)C(F)(F)F (stereo not given)	-2	99	101	3
CNC(=O)c1cc(C)c(-c2ccccc2)s1	168	100	105	-1
CCN(CC)CC(=O)Nc1ccc(Oc2ccc(NC(=O)CN(CC)CC)cc2)cc1	-4	101	100	0
CCN(CC)CCNc1c2c(c(C#N)c3nc4ccccc4n13)CCCC2	-9	100	101	-38
CCOC(=O)c1cc(S(=O)(=O)N2CCCC2)cn1C	-11	105	107	-10
Cc1cccc(C)c1NC(=O)CN1CCN(CCCC(c2ccc(F)cc2)c2ccc(F)cc2)CC1	-5	100	99	-6
COc1cc2c(C(=O)O)c(C)n(C)c2cc1Br	/	104	107	-6
COc1cc(NC(=O)C2CCN(c3ncccn3)CC2)cc(OC)c1	22	102	100	-14
Cc1ccc2nsnc2c1S(=O)(=O)NC(C)(C)C	6	100	102	25
O=C(CSc1ccc(-c2cccnc2)nn1)c1ccc(F)cc1	-9	101	96	-5
CCc1ccc(NC(=O)c2sc3ncnc(N4CCN(C)CC4)c3c2C)cc1	-23	102	102	-8
Cc1ccc(CNC(=S)NC2CCN(C)CC2)cc1	-1	100	103	-22
CC1CCC2(CC1)NC(=O)N(/N=C/c1ccccc1)C2=O (stereo not given)	-5	/	/	-1
O=P(O)(CCc1ccccn1)CN1CCOCC1	/	104	107	-7
CN(Cc1ccccc1)C(=O)COCc1cc(-c2ccco2)on1	-8	102	104	-19
CCCCS(=O)(=O)c1sc2nc(C)cc(C)c2c1N	-162	101	102	-6
Cc1nn(-c2ccc(N3CCCC3)nn2)c(C)c1CCC(=O)NCc1ccc2c(c1)OCO2	-23	101	99	-4
O=C(OCCCN1C(=O)c2ccccc2C1=O)c1ccc(Cl)cc1Cl	4	101	107	0
O=C(NC1CCCCC1O)c1cccc(Cl)c1 (stereo not given)	15	101	104	-20
NC(=O)c1noc(C(=O)N(c2ccc(OC(F)(F)F)cc2)C(C(=O)NC2CCCC2)c2c[nH]c3ccccc23)c1N (stereo not given)	-8	104	99	-14
O=C(CCc1ccccc1)N1CCN(c2ccc(N3CCCCCC3)nn2)CC1	4	97	102	6
CN=c1scc(C)n1/N=C/c1ccc2c(c1)OCO2	-3	102	98	-29
Cc1c(C(=O)Nc2ccccc2)cc(-c2ccccc2)n1CCCN1CCOCC1	-13	102	110	-12
O=C(N[C@@H](Cc1ccc(O)cc1)C(=O)O)OCc1ccccc1	-7	101	104	-14

One compound at a time, as listed above. Order of screens: Mtb MbtI inh, PV pol inh, PV pol inh intensity, Mtb MenB inh
Cc1c(C(=O)Nc2ccccc2)cc(-c2ccccc2)n1CCCN1CCOCC1 as listed: -13, 102, 110, -12
CC1CCC2(CC1)NC(=O)N(/N=C/c1ccccc1)C2=O (stereo not given) as listed: -5, /, /, -1
CCCCS(=O)(=O)c1sc2nc(C)cc(C)c2c1N as listed: -162, 101, 102, -6

(continued)
SMILES	Mtb MbtI inh	PV pol inh	PV pol inh intensity	Mtb MenB inh
O=c1cc(Cn2nnc(-c3ccc(Cl)cc3)n2)nc2sccn12	-1	97	107	-11
COc1ccccc1N1CCN(C(C)C(=O)N2CC(C)CC(C)C2)CC1 (stereo not given)	-6	102	99	-26
O=C1/C(=C/c2ccc(-c3nn[nH]n3)cc2)C(c2ccccc2)Oc2ccccc21 (stereo not given)	-8	106	108	-5
O=C1CN(c2ncnc3sc(-c4ccccc4)cc23)CCN1	4	95	99	1
